Rce1 inhib = inhibitors of yeast Ras-converting enzyme. hit rate 0.27% among 290,000. calls only. yeast membranes, quenched prenylated peptide cleavage fluorescence;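 active = fall in fluorescence gain of 50% or more versus controls, with final raw signal at or below 3038400; inconclusive = same 50% fall but final raw signal above 3038400; inactive = fall in fluorescence gain under 50%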;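 also: plate controls were neutral control wells for no effect and wells lacking membranes for full effect; tested at 10 µM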
Target sequence (Q03530 whole entry, looked up): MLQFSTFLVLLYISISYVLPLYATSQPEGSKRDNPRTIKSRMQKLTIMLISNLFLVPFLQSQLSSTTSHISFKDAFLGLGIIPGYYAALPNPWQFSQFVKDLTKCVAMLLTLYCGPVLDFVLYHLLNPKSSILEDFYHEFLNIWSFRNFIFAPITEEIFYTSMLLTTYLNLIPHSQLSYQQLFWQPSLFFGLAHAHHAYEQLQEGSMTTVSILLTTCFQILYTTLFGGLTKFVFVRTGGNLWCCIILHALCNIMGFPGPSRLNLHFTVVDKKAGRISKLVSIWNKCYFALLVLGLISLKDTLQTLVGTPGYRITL
UUG fidelity = alters start codon recognition fidelity in yeast; hit rate 0.13% among 350,000; S. cerevisiae UUG-firefly luciferase reporter, luminescence/redox ratio; activity score, % at 18.7 µM; AID 602363;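 active = replicate mean at a twofold rise or more, about +100% in these data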;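 also: firefly luciferase made from a UUG start codon reports start codon fidelity; reporter light over untreated wells divided by growth signal over untreated wells; some hits fall short of that in this replicate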
CSC inhib = blocks cancer stem cells; cancer stem cell-like cells viability, luminescence; inhibition, % at 7.5 µM; hit rate 1.1% among 300,000;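 active = mean at 75% or more and at least half the replicates too; inconclusive = mean and replicates disagree; tested in HMLE shEcad cells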;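 also: 0% = median of negative and 100% = median of positive control wells; the first replicate is given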
eIF4H FP inh = inhibitors of RNA binding by human eIF4H; Q15056; eIF4H fluorescence polarization binding assay; inhibition, % at 35 µM; hit rate 0.94% among 290,000; AID 2012;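 active = 50% or more with normal probe brightness, or confirmed in later tests; inconclusive = above 50% with abnormal brightness, or retests that disagree; inactive = below 50% or failed in later tests; about a fifth of its hits are not listed in these tables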;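 also: calls also rest on retests at 20 µM and on dose response follow-up; 0% = protein and probe with vehicle and 100% = probe without protein; strong numbers were not always called active; many hits fall short of the cut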
HIV Env fusion = blocks HIV Env-driven cell-cell fusion; HeLa-JRFL Env/CEM21 cell fusion, luciferase; inhibition, % at 12.3 µM; hit rate 1.1% among 360,000; AID 651610;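 active = mean replicate inhibition score of at least 50 and every replicate individually at or above 50; inconclusive = only one of the two criteria met; inactive = mean below 50 and not all replicates reaching 50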;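 also: 0% = plate neutral controls and 100% = maraviroc near 300 nM; one replicate is shown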
PABP polyA inh = blocks human PABP binding to poly(A) RNA; P11940; fluorescence polarization; inhibition, % at 35 µM; hit rate 1% among 290,000; AID 2014;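 active = 50% or more with normal probe brightness, or confirmed in later tests; inconclusive = above 50% with abnormal brightness, or retests that disagree; inactive = below 50% or failed in later tests; about a fifth of its hits are not listed in these tables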;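 also: calls also rest on retests at 20 µM and on dose response follow-up; controls were probe without protein and protein plus probe with vehicle; some compounds called inactive have numbers as strong as hits; many hits fall short of the cut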
MT1-MMP act inh = MT1-MMP (human) activation inhibition | GFP/RFP ratio change, % at 20 µM | hit rate 0.061% among 360,000 | P50281 | HT1080 RFP-PRO-GFP cells, GFP/RFP ratio fluorescence, overnight; percent of plate control window, DMSO zero;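 active = GFP/RFP ratio change of at least 30% with cell ATP level not reduced by more than half and red fluorescence within 50% of control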; also: strong numbers were not always called active
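Test system: HT1080 cells expressing an RFP-PRO-GFP fluorescent reporter construct / Compound dosing: single-point 20 µM compound, 1% DMSO / Schedule: cells overnight before dosing, compound overnight, 37 °C, 5% CO2 / Evaluation: GFP/RFP fluorescence ratio / Control set: DMSO and RFP-L50D-GFP cell wells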
MT1-MMP act inh RFP = also measured in MT1-MMP act inh; calls as there; RFP signal change, %; measured here: RFP expression control read;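 0 = vehicle wells; hits needed this value within 50% of zero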
The depositor's hits bear a star; i = inactive; ? = inconclusive; . = not tested or not shown; & = joins results of further samples.

SMILES	Rce1 inhib	UUG fidelity	CSC inhib	eIF4H FP inh	HIV Env fusion	PABP polyA inh	MT1-MMP act inh	MT1-MMP act inh RFP
COCCn1c(=S)[nH]c2cc(C(=O)NCCc3ccccc3)ccc2c1=O	i	-12	0	0	-12	-5	0	0
O=C(CCNC(=O)C1CCN(S(=O)(=O)c2ccccc2)CC1)NCc1cccc(Cl)c1	i	11	-8	-15	0	-1	1	2
CCOc1ccccc1OCC(=O)Nc1nc2ccccc2[nH]1	i	.	4	-4	1	9	2	2
Cc1ccc(S(=O)(=O)N2CCN(C(=O)CSc3nc4ccccc4c(=O)[nH]3)CC2)c(C)c1	i	-9	14	6	15	7	6	2
Cn1c2ccccc2c2nnc(NN)nc21	i	-14	8	2	27	4	7	7
CCN1CCN(c2nc3ccccc3nc2NS(=O)(=O)c2ccc(NC(C)=O)cc2)CC1	i	-20	4	-2	-13	-10	7	4
CCCc1nnc(SCC(=O)Nc2ccccc2F)o1	.	-10	-5	-12	-6	3	2	5
Cc1onc(NC(=O)CSCC(=O)O)c1Br	i	-3	-3	5	-1	-2	-2	5
CNC(=S)Nc1cc(OC)c(NC(=O)c2ccco2)cc1OC	i	.	-17	2	-5	-9	3	3
Cc1ccc(CNC(=O)C2CCC(CNS(=O)(=O)c3cccc4cccnc34)CC2)cc1 (stereo unspecified)	i	-18	-6	10	-1	13	3	-3
CC(Sc1nc(-c2ccccc2)cc(C(F)(F)F)n1)C(=O)N1CCOCC1 (stereo unspecified)	i	3	-11	2	.	6	1	-1
COc1ccccc1CNC(=O)CNC(=O)c1ccc(Br)o1	i	-17	-18	2	.	-11	1	4
C[C@H](O)[C@@H]1C(=O)N2CCc3c([nH]c4ccccc34)[C@@H]2C[C@@H]1N(C)C(=O)Nc1cc(Cl)cc(Cl)c1	.	-21	.	.	-11	.	4	-9
COCCNC(=O)C(c1ccco1)N(C(=O)Cn1nnc2ccccc21)c1cc(C)ccc1C (stereo unspecified)	i	-17	-17	3	.	-6	-4	-1
C=CCN1CCN(Cc2cnc(Cl)s2)CC1	i	.	22	-1	-4	-1	2	1
CCOc1ccc(C2C(C#N)=C(N)SC(N)=C2C#N)c(OCC)c1	i	-13	-9	?	.	-10	-146	3
Cc1ccc(N(C)S(=O)(=O)c2ccc3c(c2)NC(=O)C(C)S3)cc1 (stereo unspecified)	i	-6	-2	-4	5	6	2	-8
Cc1c(C(=O)OCc2nc3ccsc3c(=O)[nH]2)oc2ccccc12	.	17	-8	.	0	.	3	-1
COc1ccc(CNS(=O)(=O)CCNCc2ccco2)cc1	.	-7	.	.	-5	.	8	10
CCC(C)(C)NC(=O)C(c1ccc(O)cc1)N(CCOC)C(=O)CCC(=O)Nc1nccs1 (stereo unspecified)	i	-29	2	1	15	-1	-7	1
CN(C)C(=O)C1CC(=O)OC12CCCCC2 (stereo unspecified)	i	.	4	-5	7	2	.	.
CCN(CC)S(=O)(=O)c1ccc(N2CCCC2)c(NC(=O)c2c(-c3ccccc3)noc2C)c1	i	8	-12	-7	22	1	5	4
COc1ccccc1C(=O)NC1CCCCCCC1	i	-15	-16	-10	-109	6	1	5
CCCCSc1nc(SCC(=O)NCc2ccco2)c2c3c(sc2n1)COC(C)(CC)C3 (stereo unspecified)	i	-9	15	4	5	-5	-2	-8
CCOc1ccc(NS(=O)(=O)c2c(C(=O)N3CCCCCC3)c(C)n(C)c2C)cc1	i	6	-7	-8	12	-2	0	1
CC(C)(C)NC(=O)C(=O)N/N=C/c1ccc(Br)cc1	i	.	-5	-8	.	8	3	6
CC(C)(C)OC(=O)N1CC=C2C(C#N)=C(N)C(C#N)(C#N)[C@H](c3cccnc3)[C@H]2C1	.	-8	0	29	-19	47	-40	6
Cc1ccc(Cn2nc(C)c(NC(=O)CCCn3nc(C)c([N+](=O)[O-])c3C)c2C)cc1	i	.	-6	5	5	-3	3	4
Cc1nc(NC(=O)COC(=O)C2=NNC(=O)CC2)c(Cl)cc1Cl	i	.	4	5	11	3	2	2
Cn1c(=NC(=O)COc2ccccc2)sc2ccccc21	i	.	-2	-4	-35	8	0	-2
CC(C)Cn1c(-c2ccco2)nc2c(c(=O)c3ccccc3n2C)c1=O	i	.	-14	16	-43	-4	.	.
COc1ccccc1CNC(=O)CN1C(=O)NC2(CCCC2)C1=O	.	-5	-13	.	-6	.	4	-1
Cn1c(CS(=O)Cc2c(Cl)cccc2Cl)nnc1SCc1c(Cl)cccc1Cl (stereo unspecified)	i	-11	-12	-18	.	2	6	-2
COC(=O)c1ccc(NC(=S)NC(=O)C2CCC2)cc1	.	-30	2	0	-28	-6	0	1
COC(=O)c1ccc(OC(=O)CN2C(=O)c3ccccc3C2=O)cc1	i	4	-11	-1	-4	-8	-1	4
C/C=C/c1ccc(OCCCn2cncn2)c(OC)c1	i	-11	-6	4	.	18	2	-1
CS(=O)(=O)NN1C(=O)c2ccccc2NC1c1cccc2cccnc12 (stereo unspecified)	i	.	2	-8	-1	-5	-4	-1
O=C(C=C1SCCS1)/C=C/c1ccco1	i	.	0	90*	.	60*	-3	5
COc1ccc(Cn2ccnc2SCC(=O)NC2CCCCC2)cc1	i	-22	-19	3	-27	8	0	1
O=S(=O)(Nc1ccccc1N1CCCCC1)c1ccc(F)cc1F	.	-13	13	8	19	-2	-1	-2
COc1ccc(C)cc1NC(=O)C(Sc1nnnn1C)c1ccccc1 (stereo unspecified)	i	11	-5	5	27	-58	1	-1
O=C(Cc1ccc([N+](=O)[O-])cc1)N/N=C/c1ccccc1F	i	-12	-11	1	-6	-3	-1	-3
CCOC(=O)C1(CCc2ccccc2)CCN(C(=O)C(C)n2cncn2)CC1 (stereo unspecified)	i	2	-8	12	-6	0	-3	-1
COc1cccc(CNC(=O)CCNS(=O)(=O)c2cccc3nsnc23)c1	i	.	-5	-4	-7	-11	0	2
O=C(OCc1cccc([N+](=O)[O-])c1)c1cccnc1Cl	i	-16	-4	14	-14	7	-4	-2
Cc1noc(C(C)C)c1C(=O)Nc1ccc(-c2nnc3n2CCCCC3)cc1	.	-10	-25	.	.	.	1	-2
CCNC(=O)NC(=O)C(C)Oc1ccc(C(=O)OC)cc1 (stereo unspecified)	i	10	.	0	.	9	-1	0
Cc1cc(NC(=O)Nc2cccc(C(F)(F)F)c2)no1	i	.	-1	-3	-27	-2	6	-3
O=C(Nc1cccc(C(F)(F)F)c1)C1CCCCC1	i	-14	-14	6	.	5	1	2
CCCN1CCN(S(=O)(=O)c2cc3c(cc2C)NC(=O)CO3)CC1	i	-8	-3	-4	0	-5	-4	6

(next part)
SMILES	Rce1 inhib	UUG fidelity	CSC inhib	eIF4H FP inh	HIV Env fusion	PABP polyA inh	MT1-MMP act inh	MT1-MMP act inh RFP
OCCN1CCN(c2ncnc3sc4c(c23)CCCC4)CC1	i	-11	5	1	14	2	-6	-3
COc1ccc(NS(=O)(=O)c2cccc(C(=O)NNC(=O)CNC(=O)c3cccc(C)c3)c2)cc1	i	16	0	-16	.	-5	2	4
Cn1nnnc1SCC(=O)Nc1ccccc1[N+](=O)[O-]	i	-10	-1	-1	.	-4	-4	3
COC(=O)C1=C(C)NC(C)=C(C(=O)OC)C1C(=O)OCCN1C(=O)c2ccccc2C1=O	i	-15&-18	0	-17	3	-4	-2&3	4&2
CCc1ccc2c(c1)NC(=O)C2(C)Cc1ccc(Cl)cc1 (stereo unspecified)	.	-8	.	.	15	.	3	-2
O=[N+]([O-])c1cccc(S(=O)(=O)Nc2cccc(-c3ccc(N4CCCC4)nn3)c2)c1	i	13	.	.	11	.	6	-1
O=c1[nH]c(CO)nc2c1oc1ccccc12	i	-15	-6	-1	.	8	-1	1
CC1=C(C(=O)OC2CCCC2)C(c2ccc(C)o2)C2=C(CC(c3cccs3)CC2=O)N1 (stereo unspecified)	i	-7	.	-8	-8	-11	-21	-12
CCOC(=O)/C(=C\C=C1/Sc2ccccc2N1CC)C(C)=O	i	8	-10	?	0	5	-195	1
COCCN(C(=O)c1cc2c(s1)CCCCC2)c1c(N)n(Cc2ccccc2)c(=O)[nH]c1=O	i	24	-21	.	-1	.	5	1
Cn1c(=O)c2c(nc(N/N=C/c3cccs3)n2C)n(C)c1=O	i	-4	-10	8	-17	20	2	1
Cc1nn(CC(=O)N(C)Cc2ccccc2)c(=O)c2cccn12	i	-1	-5	-2	-8	6	0	3
CCC(C)(C)NC(=O)CN(Cc1ccc(F)cc1)C(=O)CCC(=O)Nc1ccccn1	i	-6	1	-12	-1	-14	-1	-1
Cc1ccc(S(=O)(=O)N(C)CC(=O)NCCCn2ccnc2)cc1	i	-1	3	3	-6	-1	1	-3
O=[N+]([O-])c1ccc(/C=C/c2nc3ccc([N+](=O)[O-])cc3[nH]2)cc1	i	.	17	0	-3	-6	1	-19
COc1cc(/C=C/C(=O)Nc2ccccc2C(F)(F)F)cc(OC)c1OC	i	.	-23	-5	-11	-8	.	.
COc1cccc(-c2nnc(NC(C)=O)o2)c1	i	-20	-4	-7	-8	11	4	6
CC1CC(C)CN(C(=O)/C(=C\c2ccccc2)c2ccccc2)C1 (stereo unspecified)	i	.	-2	1	-12	5	-12	-7
C=CCNC(=O)C1CCN(C(=O)c2ccc(-c3ccccc3)cc2)CC1	i	-4	-20	-8	11	-9	-2	4
CCCNC(=O)C1(C)CCCN(C(=O)COCc2ccccc2)C1 (stereo unspecified)	.	3	.	.	0	.	1	0
CSc1cccc(NC(=O)c2nnn(CC(=O)Nc3cc(C)cc(C)c3)c2N)c1	i	-6	-13	-2	13	-2	2	3
CNc1cc(-c2c(OC)cccc2OC)ncn1	.	-25	.	.	9	.	-2	0
COc1ccc(CN=C2NC(=O)CC(C(=O)Nc3ccccc3C)S2)cc1 (stereo unspecified)	i	.	-12	-1	-2	16	7	3
CC(C)(C)OC(=O)N1CCC[C@H]1C(=O)NCc1ccc(Cl)cc1Cl	i	.	6	7	8	3	-1	0
COc1cc(OC)cc(C(=O)N2CCCC(c3nc(-c4ccc(C)o4)no3)C2)c1 (stereo unspecified)	i	-6	-5	-7	2	-5	-7	-5
COc1ccc(N2CC(C(=O)OCC(=O)c3ccc(C)cc3)CC2=O)cc1 (stereo unspecified)	i	8	-3	3	3	1	6	1
COc1cccc(O[C@@H]2O[C@@H]3COC(C)(C)O[C@H]3[C@H](O)[C@H]2NC(C)=O)c1	.	-17	-7	-4	-7	-9	-3	3
CCc1ccc(C(C)NC(=O)c2cccs2)cc1 (stereo unspecified)	i	-12	-3	.	11	.	7	-5
COc1ccc(C(=O)C[n+]2cccc3cc(C)ccc32)cc1	i	-6	10	41	45	19	-2	-3
C=C(C)c1cccc(C(C)(C)NC(=O)NCCCN2CCCC2=O)c1	i	-13	.	-9	7	11	1	4
